From PubChem BioAssay
VDR inhibitor = Inhibitors of the vitamin D receptor (VDR): qHTS | VDR-SRC2-3 peptide fluorescence polarization, 2 h | Vitamin D3 receptor (Homo sapiens), P11473 | AID 504847, 2011 | Potency, µM, for inactives: max response, negative = inhibition, hits mostly inhibitors | 400,000 tested, 0.93% active; active = well fitted inhibition curve with a large enough effect; inconclusive = small, poorly fitted or top-dose-only effect, or another doubt; inactive = no such curve, though single readings can be large or run the other way; note: series mostly up to about 120 µM
Target sequence (P11473 whole entry, looked up): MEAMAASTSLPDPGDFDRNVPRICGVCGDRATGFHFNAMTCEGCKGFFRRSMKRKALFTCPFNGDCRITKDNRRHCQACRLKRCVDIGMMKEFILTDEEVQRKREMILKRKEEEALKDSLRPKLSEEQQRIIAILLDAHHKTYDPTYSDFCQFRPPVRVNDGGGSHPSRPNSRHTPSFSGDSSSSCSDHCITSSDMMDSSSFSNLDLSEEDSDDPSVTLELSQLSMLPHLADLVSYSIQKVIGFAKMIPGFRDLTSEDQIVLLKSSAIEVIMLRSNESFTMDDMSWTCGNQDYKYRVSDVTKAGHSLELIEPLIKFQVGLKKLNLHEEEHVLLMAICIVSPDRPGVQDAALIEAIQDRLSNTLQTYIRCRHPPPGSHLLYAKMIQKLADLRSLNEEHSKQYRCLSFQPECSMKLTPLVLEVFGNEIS
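The screen uses fluorescence polarization to detect compounds that interfere with recruitment of the SRC2-3 coactivator peptide to VDR; plates are read after 2 h at room temperature.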
The depositor's hits bear a star; u = inconclusive; [ ] = another dose, or the depositor's remark. % is set by controls: 0 for no effect and ±100 for the full control effect; potency is the fitted concentration of half-maximal effect.

SMILES	VDR inhibitor
COc1ccc(-c2noc(CSc3nc4sc(C)c(C)c4c(=O)n3-c3ccccc3)n2)cc1	-14%
CCN(CC)CCCn1c2c(c(SCC(=O)Nc3ccc4c(c3)OCCO4)nc1=O)CCC2	-12%
Cc1ccc(C2=NS(=O)(=O)N(C)C(C(=O)NCc3cccs3)=C2)cc1	-24%
O=C(CCC(=O)Nc1ccc(Br)cc1)N/N=C/c1ccc(F)cc1	-12%
COc1ccc(S(=O)(=O)c2nnn(-c3cc(Cl)c(OC)cc3OC)c2C)cc1	-9%
O=C(COc1ccc(F)cc1)N1CCCc2ccccc21	-10%
O=S(=O)(/N=C(/Nc1nc2ccccc2s1)c1ccccc1)c1ccccc1	-5%
O=C(Nc1ccc(Cl)cc1)c1nc[nH]c1C(=O)N1CCN(c2ccccc2)CC1	-6%
O=c1[nH]c2ccccc2n2c(-c3ccncc3)nnc12	8%
Cc1ccc2cccc(OCc3cccc([N+](=O)[O-])c3)c2n1	-5%
N#CC1(c2ccccc2)CCC(=O)N1Cc1ccccc1 (centres undefined)	31%[activator]
O=C(CN(CCc1ccccc1)C(=O)CN1C(=O)COc2ccccc21)NCc1ccco1	6%
Cc1ccc(CN(Cc2ccco2)C(=O)c2ccc(OCC(C)C)cc2)cc1	7%
Cc1nnc(NC(=O)CN2CCN(Cc3ccc(F)cc3Cl)CC2)s1	-20%
Cc1ccc(CNC(=O)c2c(-c3ccccc3)sc3ccccc23)o1	-17%
Cc1ccsc1CN1CCc2nc(N3CCN(c4ccccc4F)CC3)ncc2C1	10%
CCN(CC)CCCN(Cc1cc2cc(OC)ccc2[nH]c1=O)C(=O)Nc1ccc(F)cc1	15%
CCCCNC(=S)N/N=C/c1sccc1C	16%
CCOc1ccc(CCNC(=O)CSc2cc(=O)n(CC)c3ccccc23)cc1OCC	-5%
Cc1ccccc1NC(=O)C(=O)NCC(c1ccc2c(c1)OCO2)N1CCN(c2ccccc2)CC1 (centres undefined)	8%
CCC(C)N(C(=O)COC(=O)c1ccc(=O)n(Cc2ccccc2)n1)C1CCS(=O)(=O)C1 (centres undefined)	6%
COc1cc([C@H]2OC[C@H]3[C@@H]2CO[C@H]3c2ccc(O)c(OC)c2)ccc1O	1%
COc1cccc(NC(=O)C2CCN(S(=O)(=O)c3cc(-c4noc(C)n4)ccc3C)CC2)c1	10%
CCOc1ccc(S(=O)(=O)NCC2CCCO2)cc1NC(=O)c1ccccc1F (centres undefined)	10%
CC(NC(=O)c1ccccc1F)C12CC3CC(CC(C3)C1)C2 (centres undefined)	-11%
CC(C)Oc1cccc(C(=O)N/N=C/c2coc3ccccc3c2=O)c1	u
O=C(N/N=C/c1ccc(O)cc1O)C(=O)N/N=C/c1ccc(O)cc1O	u
CC(C)OC(=O)c1ccc(N2CCN(c3ccccc3F)CC2)nc1	-6%
O=C(c1cccc(Cl)c1)C1CCCN(C(=O)c2ccc3c(c2)OCO3)C1 (centres undefined)	-9%
Nc1nonc1C(=O)NCCNCc1ccccc1	-13%
Cc1ccc(S(=O)(=O)N2[C@@H](c3ccccc3F)C(C(=O)O)=CC[C@H]2c2ccc(Cl)c(Cl)c2)cc1	-3%
Cn1cc(C(=O)c2ccc(F)cc2)cc1-c1nc2ccccc2n1C	-19%
COCCn1cnnc1SCC(=O)Nc1cccc(S(=O)(=O)N2CCCCC2)c1	1%
Cc1ccc(/C=N/NC(=O)c2cccnc2)s1	1%
CC(C)(C)/C=N/NC(=O)C1CC1	-19%
Cc1ccc(S(=O)(=O)ON2C(=O)c3ccccc3C2=O)c(C)c1	18µM*
O=C(c1ccc(NC2=NC3CS(=O)(=O)CC3S2)cc1)N1CCN(c2ccccc2)CC1 (centres undefined)	5%
Cc1ccc(OCCNC(=O)C2CC(=O)N(Cc3ccccc3)C2)cc1 (centres undefined)	6%
CCOc1ccc(N(CC(=O)NC2CCCC2)C(=O)Cn2nnc(-c3ccc(C)o3)n2)cc1	-4%
Cc1cc(C)n(-c2nc(-c3cccc(Cl)c3)cs2)n1	-10%
CCCCCCCCNC(=O)/C(C#N)=C/c1ccc(SC)cc1	-20%
O=C1CN(C(=O)CC2c3ccccc3-c3ccccc32)CC(=O)N1	-4%
COc1ccc(-c2nc(=S)c3ccc4ccccc4c3[nH]2)cc1	5%
CN(C(=O)c1ccc(NC(=O)Cc2ccc([N+](=O)[O-])cc2)cc1)C1CCCC1	7%
Cc1cc(C)nc(N(C#N)Cc2ccccc2Cl)n1	2%
Cc1ccc(NC(=O)CSc2nccn2Cc2ccco2)cc1Cl	u
CC(C)=CCC[C@](C)(OC1OC(COC2OCC(O)C(O)C2O)C(O)C(O)C1O)C1CC[C@]2(C)C1C(O)CC1[C@@]3(C)CCC(O[C@@H]4O[C@H](CO)C(O)C(O)C4O[C@@H]4OC(CO)C(O)C(O)C4O)C(C)(C)C3CC[C@]12C (some centres undefined)	-11%
COc1ccc(CNC(=O)/C=C/c2ccc(OCCCF)cc2)cc1OC	u
Cc1ccc(CNCc2ccc3c(c2)n(C)c(=O)n3C)cc1	7%
O=C(NCC(=O)N(Cc1ccco1)C(C(=O)NC1CCCC1)c1cccnc1)c1ccco1 (centres undefined)	2%

New compounds follow:
SMILES	VDR inhibitor
CCCN(CC1CC1)C(=S)Nc1ccc(Oc2ccccc2)cc1	-16%
CCCCCCn1c(NCC)nc2c1c(=O)n(C)c(=O)n2C	6%
CC(=NNC(=S)SCc1ccccc1)c1ccccn1	-27%
COc1cc(C(=O)N(Cc2ccc(C)o2)C2CCS(=O)(=O)C2)cc(OC)c1OC (centres undefined)	24%
Cc1cc(C)nc(SCCc2ccncc2)n1	u
COc1ccc(C=NNC(=O)NN=Cc2ccc(OC)c(OC)c2)cc1OC	28%
Cc1noc(C)c1C(=O)N(CC(=O)Nc1ccccc1Br)Cc1ccco1	-3%
Cc1cnc(NC(=O)Cc2ccccc2F)s1	8%
Cc1cc2nnc(SCC(=O)NCC(c3ccccc3)N(C)C)n2c2ccccc12 (centres undefined)	-16%
COc1cc(OC)c(NC(=O)C2CCN(S(=O)(=O)c3ccc4c(c3)CC(C)N4C(C)=O)CC2)cc1Cl (centres undefined)	0%
O=C(/C=C/c1cccc([N+](=O)[O-])c1)N1CCOCC1	-5%
O=c1[nH]c2cc(Br)cnc2nc1/C=C(\O)c1ccc(F)cc1	5%
O=C(CC1C(=O)NCCN1Cc1cccc(C(F)(F)F)c1)NCCCOc1cccnc1 (centres undefined)	4%
CCNCC(O)COCC(O)CNCC (centres undefined)	4%
COc1ccccc1C(=O)Oc1ccccc1C(=O)Nc1ccccc1	-7%
Cc1ccc(S(=O)(=O)N2CCN(C)CC2)c2nsnc12	8%
CSc1nc(-c2ccccc2F)c(C#N)c(=O)n1C	-16%
O=S(=O)(CCN1CCN(C(c2ccccc2)c2ccccc2)CC1)C(F)(F)F	u
Cc1c(CCO)c(=O)n(C)n1C(=O)c1ccc(Cl)cc1	3%
COc1ccc(/C(C)=N/NC(=O)Cn2nc([N+](=O)[O-])cc2C)cc1	4%
NC(=O)CC(NC(=O)Cc1cccc2ccccc12)c1ccc(N2CCC(Cc3ccccc3)CC2)c([N+](=O)[O-])c1 (centres undefined)	-20%
c1cc(-n2cnnn2)ccc1NC1=NCCC1	-2%
CN1N=C(C(=O)NC2CCCc3c2cnn3-c2ccc(F)cc2F)CCC1=O (centres undefined)	-20%
COC(=O)c1c(C)[nH]c(C(=O)/C=C/c2ccc(C)cc2)c1C	5%
O=C1/C(=C/c2cccc(F)c2)CSc2sccc21	u
CC(=O)c1c(C)[nH]c(-c2ccccc2)nc1=S	-6%
O=S(=O)(c1ccc2nc(Nc3ccc(Br)cc3F)ccc2c1)N1CCCCC1	3%
CCN(CC)C(=O)Cn1c(SCC(=O)Nc2ccc(C)c(C)c2)nc2ccccc21	-1%
CC(C)(C)NC(=O)c1cccc2c1-c1ccccc1C2=O	-6%
COC(=O)COc1ccc2c(c1)O/C(=C\c1ccco1)C2=O	-29%
O=c1c2sc3ccccc3c2n(Cc2ccccc2Cl)c(=O)n1Cc1ccccc1	-121%
Cc1cc(=S)[nH]c(=S)[nH]1	-9%
Cc1nc2cnc(Oc3cccc(Cl)c3)nc2n(C[C@H]2CCCO2)c1=O	4%
CCc1ccc(NC(=O)C(C)Sc2nnc(CN3CCCC3)o2)cc1 (centres undefined)	7%
Cc1cc(/C=C(/C#N)c2nc3ccccc3[nH]2)c(C)n1-c1ccccc1C(=O)O	-2%
Clc1ccc2[nH]cc(-c3nnnn3-c3ccc4ccccc4c3)c2c1	1%
CCc1noc(C)c1C(=O)N1CCN(S(=O)(=O)c2ccc(C(C)=O)cc2)CC1	-1%
Cc1ccc(NC(=O)/C(=C\c2cccs2)NC(=O)c2ccccc2)cc1	-7%
COc1cccc(NC(=O)Cn2c(=O)n(Cc3nc(-c4ccccc4)no3)c(=O)c3ccccc32)c1	10%
CCCN(CC(=O)Nc1ccccc1C)C(=O)c1ccc(C)c(S(=O)(=O)N2CCCCC2)c1	26%
CC(C)n1c(N2CCN(CC(=O)Nc3ccc4c(c3)OCCO4)CC2)nc2ccccc21	9%
COc1ccc(-c2cc(C(F)(F)F)n3nc(C(=O)N4CCCCC4)cc3n2)cc1	4%
CCOC(=O)N1CCN(C(=O)/C(=C/c2ccc(N(C)C)cc2)NC(=O)c2ccccc2)CC1	-11%
CCOc1ncccc1C(=O)OCC(=O)c1cc(OC)c(OC)c(OC)c1	19%
CCC(=O)OCCCCCCOc1ccc(C(=O)O)cc1	4%
COc1ccc(NC2=CC(=O)CC(c3ccccc3)C2)cc1 (centres undefined)	-1%
CSCCC(NC(=O)c1ccccc1Cl)C(=O)NCC(c1cccs1)N(C)C (centres undefined)	15%
COc1ccc(NC(=O)c2c(C)oc3ccc(O)c(CN4CCCC(C)C4)c23)cc1 (centres undefined)	7%
COc1nc(OC)nc(N2CCC(NC(=O)C(Cc3ccc(C(C)C)cc3)NC(C)=O)CC2)n1 (centres undefined)	6%
Cc1cc(C)cc(Oc2c(C(F)(F)F)oc3c(CN4CCCC(C)C4)c(O)ccc3c2=O)c1 (centres undefined)	-2%

Continuation:
SMILES	VDR inhibitor
O=C(NCc1ccco1)c1nn2c(C(F)(F)F)cc(-c3cccs3)nc2c1Br	-5%
CCc1cc2c(=O)[nH]c(Cc3ccccc3)nc2s1	-2%
O=C(COC(=O)c1cnccn1)Nc1cccc(F)c1	-11%
COc1cc(OC)c(NC(=O)c2c(C)nn(-c3ccc(C)cc3)c2-n2cccc2)cc1Cl	-4%
CCOC(=O)C1=CNS(=O)(=O)NC1c1ccc(C#N)cc1 (centres undefined)	-1%
CCOC(=O)N1CCN(C(=O)C(C)N(c2ccc(Oc3ccccc3)cc2)S(C)(=O)=O)CC1 (centres undefined)	-11%
O=C(NCc1ccc(Cl)cc1)C1CCC(=O)N(C2CC2)C1 (centres undefined)	-14%
[O-][N+]1=c2ccc(Nc3ccccc3)cc2=NC12CCCCC2	u
Cc1cc(/C=N/n2cnnc2)c(C)n1-c1ccc(OCc2ccc(Cl)cc2)cc1	1%
O=C1CCN(CCc2ccccc2)CCN1CCSc1ccccc1	-13%
O=C(N/N=C/c1ccc(COc2ccc(Br)cc2)o1)c1ccc2c(c1)OCO2	-4%
Cc1cccc(NC(=O)CSc2nncn2-c2ccccn2)c1	12%
CC(=O)/C(=C\Nc1ccc(OCc2ccccc2)cc1)c1ccccc1	-2%
O=C(Nc1ccccc1)c1ccc(-n2cnnn2)cc1	-7%
COc1ccc(OC)c(NC(=O)C2C3CCC(C3=C(C)C)C2C(=O)O)c1 (centres undefined)	-17%
O=C(N/N=C/c1ccoc1)c1cc(O)cc(O)c1	0%
CC(C)Oc1ccc2c3c(c(=O)oc2c1)CCC3	-5%
O=C(CN1C(=O)c2cccc3cccc(c23)C1=O)N1CCCCCC1	-5%
Oc1ccc(-c2ccccc2)cc1CN1CCCCCC1	-3%
O=C(N/N=C\c1ccccc1)c1cccc(C(=O)N/N=C\c2ccccc2)n1	18%
CCOC(=O)c1c(C)oc2nc(C)nc(NCCc3ccc(OCC)cc3)c12	8%
CCc1ccccc1-n1nnnc1SCC(=O)Nc1ccc(N2CCN(C)CC2)cc1	-21%
CCOCCOC(=O)C(C)Oc1ccc(Oc2ncc(Cl)cc2Cl)cc1 (centres undefined)	-7%
COc1ccc(CCN(C)C(=O)C23CC4CC(CC(Cl)(C4)C2)C3)cc1OC	3%
COc1ccc(C(=O)NCCc2nc3cc([N+](=O)[O-])ccc3n2C)cc1	-26%
COc1cc2ncnc(N[C@H](C)c3ccccc3)c2cc1OC	-11%
COC(=O)N/N=C/c1cc(Cl)cc(Cl)c1OCc1ccc(F)cc1	2%

Not all compounds are listed; rates above refer to the full screens.
